CBX7 inh = CBX7 inhibition, primary AlphaScreen; actives 1.1% (n = 66,000); AlphaScreen His6-CBX7 / biotin-H3K27me3 peptide binding; stronger effect = lower value; normalised signal (fraction of DMSO) (no concentration beside the values); in the data active means normalised signal below about 0.5;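 further: 100 nL library stock added to about 20 µL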
Target sequence (O95931 whole entry, looked up): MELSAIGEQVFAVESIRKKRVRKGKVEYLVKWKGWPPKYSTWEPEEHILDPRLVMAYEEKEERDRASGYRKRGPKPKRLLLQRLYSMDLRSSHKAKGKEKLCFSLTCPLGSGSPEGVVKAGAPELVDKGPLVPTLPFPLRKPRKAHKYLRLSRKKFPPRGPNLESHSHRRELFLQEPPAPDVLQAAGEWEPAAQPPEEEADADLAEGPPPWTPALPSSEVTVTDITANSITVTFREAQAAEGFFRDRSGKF
CBX7 inh z-score = recorded beside CBX7 inh, whose call it bears; z-score; measured here: z-score of CBX7 signal; some inactives read as strong as hits; reference of the scale not given here;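 same signal on another scale; lower means less binding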
Numbers without * were called inactive; & = joins results of further samples. An excerpt (hit frequency here may not be typical).

The first five entries (preview)
What do the screens show for `COc1ccc(C2CC(=O)N(CC(=O)Nc3cccc(C)c3)c3ccccc3S2)cc1` (stereo not drawn)?
CBX7 inh: 0.734; CBX7 inh z-score: -4.45

Results for COc1ccc(NC(=O)c2cc(-c3cccc(Cl)c3)on2)c(OC)c1 ?
CBX7 inh: 1.19; CBX7 inh z-score: 1.51

What do the screens show for `CCOc1ccc(CCNC(=O)CCCc2cc(-c3ccc(OC)cc3)on2)cc1`?
CBX7 inh: 1.15; CBX7 inh z-score: 2.8

What do the screens show for `CN1CCN(CCCNC(=O)C2c3ccccc3C(=O)N3CCc4ccccc4C23)CC1` (stereo not drawn)?
CBX7 inh: 1.11; CBX7 inh z-score: 2.12

Results for CC(=O)N1CCc2cc(S(=O)(=O)NCC(=O)O)ccc21 ?
CBX7 inh: 1; CBX7 inh z-score: 0.0864

This part in full, previewed entries included:
What do the screens show for `COc1ccc(C2CC(=O)N(CC(=O)Nc3cccc(C)c3)c3ccccc3S2)cc1` (stereo not drawn)?
CBX7 inh: 0.734; CBX7 inh z-score: -4.45

Results for COc1ccc(NC(=O)c2cc(-c3cccc(Cl)c3)on2)c(OC)c1 ?
CBX7 inh: 1.19; CBX7 inh z-score: 1.51

What do the screens show for `CCOc1ccc(CCNC(=O)CCCc2cc(-c3ccc(OC)cc3)on2)cc1`?
CBX7 inh: 1.15; CBX7 inh z-score: 2.8

What do the screens show for `CN1CCN(CCCNC(=O)C2c3ccccc3C(=O)N3CCc4ccccc4C23)CC1` (stereo not drawn)?
CBX7 inh: 1.11; CBX7 inh z-score: 2.12

Results for CC(=O)N1CCc2cc(S(=O)(=O)NCC(=O)O)ccc21 ?
CBX7 inh: 1; CBX7 inh z-score: 0.0864

How did Cc1oc(-c2ccccc2F)nc1CS(=O)(=O)CC(=O)N1CCCCCC1 do in these assays?
CBX7 inh: 0.952; CBX7 inh z-score: -0.894

Results for Cn1c(NC(=O)COc2ccc(F)cc2F)nc2ccccc21 ?
CBX7 inh: 0.811; CBX7 inh z-score: -2.14

What do the screens show for `O=C(Nc1nnc(C2CCCCC2)s1)c1ccc2c(c1)OCO2`?
CBX7 inh: 1.08; CBX7 inh z-score: 0.342

What do the screens show for `CCn1cc(C(=O)O)c(=O)c2cc(F)c(-n3nnc(C(=O)OC)c3C(=O)OC)cc21`?
CBX7 inh: 0.873; CBX7 inh z-score: -2.51

How did Cc1onc(-c2ccccc2)c1C(=O)Nc1ccc(Cl)cn1 do in these assays?
CBX7 inh: 0.982; CBX7 inh z-score: -0.0208

Results for Cc1ccc2nc(-c3cccnc3)c(NC3CCCC3)n2c1 ?
CBX7 inh: 0.814; CBX7 inh z-score: -0.254

How did COc1ccc(N2CCN(CCCNC(=O)CN3C(=O)COc4ccccc43)CC2)cc1 do in these assays?
CBX7 inh: 0.915; CBX7 inh z-score: -1.32

Results for COc1ccc(S(=O)(=O)Nc2cccc(-c3cn4cccc(C)c4n3)c2)cc1OC ?
CBX7 inh: 1.01; CBX7 inh z-score: 0.34

How did Cc1cc(N2CCCCC2C)n2nc(C)c(-c3ccc(Cl)cc3)c2n1 (stereo not drawn) do in these assays?
CBX7 inh: 2.01; CBX7 inh z-score: 10.1

How did CCN(CC)CCCNc1oc(-c2ccc(F)cc2)nc1C#N do in these assays?
CBX7 inh: 1.37; CBX7 inh z-score: 4.07

How did CCOC(=O)c1c(C)n(-c2ccc(C)cc2)c2ccc(OCC(O)CN3CCCCCC3)cc12 (stereo not drawn) do in these assays?
CBX7 inh: 0.79; CBX7 inh z-score: -2.28

Results for O=C(C1CCN(S(=O)(=O)c2cccnc2)CC1)N1CCN(c2ccccc2)CC1 ?
CBX7 inh: 1.01; CBX7 inh z-score: 0.365

How did COc1ccc(NC(=O)c2cccc(NC3=NC4CS(=O)(=O)CC4S3)c2)cc1OC (stereo not drawn) do in these assays?
CBX7 inh: 1.03; CBX7 inh z-score: 1.17

How did COc1ccccc1Nc1ncc(C(=O)Nc2ccc(F)cc2)c2ccccc12 do in these assays?
CBX7 inh: 1.03; CBX7 inh z-score: 0.602

What do the screens show for `CCn1c(-c2nonc2N)nc2ccccc21`?
CBX7 inh: 1.04; CBX7 inh z-score: 0.417

What do the screens show for `O=C1CC(N2CCC(O)(c3ccc(Br)cc3)CC2)C(=O)N1c1ccc(F)cc1` (stereo not drawn)?
CBX7 inh: 0.991; CBX7 inh z-score: -0.0124

Results for Cc1nc(N2CCN(c3ccccc3)CC2)c2c(C)c(C)sc2n1 ?
CBX7 inh: 0.989; CBX7 inh z-score: -0.109

How did CCCCCC(=O)Nc1ccc(S(=O)(=O)Nc2cc(OC)ncn2)cc1 do in these assays?
CBX7 inh: 1.19; CBX7 inh z-score: 1.6

How did Cc1nccc2[nH]c(=O)c(C(=O)NCCCN3CCN(c4ccccc4F)CC3)cc12 do in these assays?
CBX7 inh: 0.911; CBX7 inh z-score: -1.67

Filtered by structure: the compounds so far with a COOH group
Results for CC(=O)N1CCc2cc(S(=O)(=O)NCC(=O)O)ccc21 ?
CBX7 inh: 1; CBX7 inh z-score: 0.0864

What do the screens show for `CCn1cc(C(=O)O)c(=O)c2cc(F)c(-n3nnc(C(=O)OC)c3C(=O)OC)cc21`?
CBX7 inh: 0.873; CBX7 inh z-score: -2.51

Next part:
Results for COc1ccc(NC(=O)N(Cc2cccnc2)Cc2ccccc2Cl)c(OC)c1 ?
CBX7 inh: 0.791; CBX7 inh z-score: -0.208

How did Cc1ccc(-c2csc3ncnc(N4CCN(c5cccc(C(F)(F)F)c5)CC4)c23)cc1 do in these assays?
CBX7 inh: 1.07; CBX7 inh z-score: 0.134

Results for COc1cccc(CN2C(=O)CCC2(C)C(=O)NC2CCCCCCC2)c1 (stereo not drawn) ?
CBX7 inh: 1.05; CBX7 inh z-score: 0.397

How did COc1ccccc1NC(=O)c1cccc2c1C(=O)N(Cc1cccnc1)C2 do in these assays?
CBX7 inh: 0.986; CBX7 inh z-score: -0.014

Results for COc1ccc(Cn2c(=O)[nH]c3cc(C(=O)NCCc4ccccc4)ccc3c2=O)cc1 ?
CBX7 inh: 1.02; CBX7 inh z-score: 0.595

What do the screens show for `COc1ccc(C(=O)Nc2ccc3oc(-c4cccc(F)c4)nc3c2)cc1OC`?
CBX7 inh: 1.04; CBX7 inh z-score: 0.718

What do the screens show for `CCCCOc1cccc(-c2nc3c(C(=O)OC)c[nH]n3c2NC2CCCCCC2)c1`?
CBX7 inh: 0.46*; CBX7 inh z-score: -10.7*

Results for Cc1cc(Nc2cccc(C)c2C)n2nc(C)nc2n1 ?
CBX7 inh: 1.1; CBX7 inh z-score: 2.21

How did CCc1ccc2oc(-c3ccc(NC(=O)CC(C)C)cc3)nc2c1 do in these assays?
CBX7 inh: 1.05; CBX7 inh z-score: 1.39

How did O=C(Nc1ccc(OC(F)(F)F)cc1)C1CCN(S(=O)(=O)c2cccc3cccnc23)CC1 do in these assays?
CBX7 inh: 0.993; CBX7 inh z-score: -0.0882

How did Cn1c(C(=O)N2CCC(C(=O)NC3CC3)CC2)cc2sccc21 do in these assays?
CBX7 inh: 0.983; CBX7 inh z-score: -0.31

How did CCOc1ccc(-n2ccnc2SCC(=O)NCc2ccc(F)cc2)cc1 do in these assays?
CBX7 inh: 0.705; CBX7 inh z-score: -0.391

What do the screens show for `Cc1c(Cl)cccc1-c1ccc(C(=O)Nc2ccc3oc(-c4ccncc4)nc3c2)o1`?
CBX7 inh: 0.998; CBX7 inh z-score: -0.127

How did CCOCCCNC(=O)C(NC(=O)CC1NC(=O)NC1=O)c1ccc(Cl)cc1 (stereo not drawn) do in these assays?
CBX7 inh: 0.964; CBX7 inh z-score: -0.97

How did Cc1ccc(-c2ccc(=O)n(CC(=O)N3CCC(C)CC3)n2)cc1 do in these assays?
CBX7 inh: 0.997; CBX7 inh z-score: -0.115

Results for Cc1cc(N2CCOCC2)nc2ccc(NC(=O)CCC(=O)NC3CCCC(C)C3C)cc12 (stereo not drawn) ?
CBX7 inh: 0.986; CBX7 inh z-score: -0.0187

What do the screens show for `COc1ccc(C(=O)NCCc2cc3cc(C)c(C)cc3[nH]c2=O)cc1OC`?
CBX7 inh: 1.02; CBX7 inh z-score: 0.322

What do the screens show for `O=C(NCc1cccnc1)C(=O)Nc1ccccc1`?
CBX7 inh: 1.03; CBX7 inh z-score: 0.858

What do the screens show for `COc1cccc(C2C(=O)N(C3CCCCC3)CC(=O)N2Cc2ccc(F)cc2)c1` (stereo not drawn)?
CBX7 inh: 1.5; CBX7 inh z-score: 2.02

Results for NC(=O)CN(C(=O)c1ccccc1)C1(C(=O)Nc2ccc3c(c2)OCCO3)CCCC1 ?
CBX7 inh: 1.19; CBX7 inh z-score: 1.96

Results for CC(NC(=O)C(=O)NCc1ccccn1)C(c1cccs1)N1CCN(C)CC1 (stereo not drawn) ?
CBX7 inh: 0.953; CBX7 inh z-score: -1.07

Results for N#Cc1ccc(NC(=O)c2cc(C3CC3)on2)cc1 ?
CBX7 inh: 1.04; CBX7 inh z-score: 1.22

How did CCCc1nc2nc(C)cc(Nc3ccc(F)cc3F)n2n1 do in these assays?
CBX7 inh: 0.882; CBX7 inh z-score: -1.36

How did Cc1ccc(S(=O)(=O)Nc2ccc(-c3csc(Nc4cccc(C(F)(F)F)c4)n3)cc2)cc1 do in these assays?
CBX7 inh: 0.783&0.673; CBX7 inh z-score: -3.43&-3.61

What do the screens show for `Cc1ccc2c(c1)NC(=O)CC(c1ccccc1)=N2`?
CBX7 inh: 1; CBX7 inh z-score: 0.0422

What do the screens show for `CC(C)(C)c1ccc2c(c1)N(CC(=O)NCCCN1CCCCCC1)C(=O)CO2`?
CBX7 inh: 1.09; CBX7 inh z-score: 1.69

What do the screens show for `COc1ccc(-c2csc(NC(=O)c3cc(-c4cccs4)nc4ccccc34)n2)c(OC)c1`?
CBX7 inh: 0.811; CBX7 inh z-score: -1.43

How did CCn1c(C2CC(=O)N(c3cccc(C(F)(F)F)c3)C2)nc2ccccc21 (stereo not drawn) do in these assays?
CBX7 inh: 1.23; CBX7 inh z-score: 1.62

What do the screens show for `Cc1cccc(-c2nc(CN3CCCC(C(=O)NCCc4ccccc4)C3)c(C)o2)c1` (stereo not drawn)?
CBX7 inh: 0.99; CBX7 inh z-score: -0.264

What do the screens show for `COc1cc(OC)cc(-c2cc3nc(C)c(CCC(=O)NC(C)c4cccs4)c(C)n3n2)c1` (stereo not drawn)?
CBX7 inh: 0.937; CBX7 inh z-score: -1.14

What do the screens show for `O=C(Cn1ccc2ccccc2c1=O)NCC(=O)N1CCCCC1`?
CBX7 inh: 1.21; CBX7 inh z-score: 1.76

How did Cn1c(C(=O)N2CCOCC2)cc2sc(Cl)cc21 do in these assays?
CBX7 inh: 1.05; CBX7 inh z-score: 2.09

What do the screens show for `CCOCCCNC(=O)c1ccc2nc(-c3ccc(OCC)cc3)c(-c3ccc(OCC)cc3)nc2c1`?
CBX7 inh: 1.33; CBX7 inh z-score: 4.42

What do the screens show for `Cc1ccc(NC(=O)CCc2nnc3ccc(NCCCN4CCCC4=O)nn23)cc1`?
CBX7 inh: 1.11; CBX7 inh z-score: 1.86

Results for O=C(NCc1ccccc1)c1ccc2c(c1)N(Cc1ccccc1)C(=O)CS2 ?
CBX7 inh: 0.858; CBX7 inh z-score: -0.558

What do the screens show for `O=C(Cc1ccc(NC2=NC3CS(=O)(=O)CC3S2)cc1)NCCCN1CCOCC1` (stereo not drawn)?
CBX7 inh: 1.05; CBX7 inh z-score: 0.524

Results for CCOc1ccc(C(=O)Nc2ccc3oc(-c4cccnc4)nc3c2)cc1Br ?
CBX7 inh: 0.98; CBX7 inh z-score: -0.0259

Results for CCc1ccccc1NC(=O)C1CCCN(S(=O)(=O)c2cccs2)C1 (stereo not drawn) ?
CBX7 inh: 1.17; CBX7 inh z-score: 2.99

Results for CCc1ccccc1NS(=O)(=O)c1ccc2[nH]c(=O)c(=O)[nH]c2c1 ?
CBX7 inh: 1.02; CBX7 inh z-score: 0.84

Results for COc1cccc(CNc2ccc(N3CCOCC3)c(Cl)c2)c1OCc1ccccc1F ?
CBX7 inh: 0.63; CBX7 inh z-score: -8.61

How did COc1ccc(-c2csc(Nc3ccc(C(=O)O)cc3)n2)cc1 do in these assays?
CBX7 inh: 0.939; CBX7 inh z-score: -1.18

How did COc1ccc(-c2nc3c(C)cccn3c2Nc2ccccc2C)cc1 do in these assays?
CBX7 inh: 0.883; CBX7 inh z-score: -1.19

How did Cc1ccc(-c2cc(-c3cc(Cl)ccc3O)on2)cc1 do in these assays?
CBX7 inh: 0.908; CBX7 inh z-score: -0.4

How did Cc1ccc(N(Cc2nnc3n2CCCCC3)C(=O)Nc2ccccc2)cc1 do in these assays?
CBX7 inh: 0.987; CBX7 inh z-score: -0.24
